Assay outcomes as filed in PubChem.
HCMV NEC inh: inhibitors of HCMV UL50-UL53 interaction, biochemical, HTRF. HCMV UL50-UL53 nuclear egress complex (human cytomegalovirus). normalized percent inhibition. inhibition, % (test concentration not listed). 190,000 compounds, 0.15% hits. AID 1918969, 2023;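 active means both replicates at 50% or more, plus weaker picks with an unusually low signal ratio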;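 further: stock transfer was 100 nL into about 20 µL; 0% = negative control wells and 100% = wells with untagged competitor protein; inactives centre near -12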
Numbers without * were called inactive; & = joins results of further samples. The list is partial; the hit share may differ from the screen's.

SMILES | HCMV NEC inh
CCCCCCCCCCCC(=O)NC[C@]1(C)CCC[C@]2(C)c3ccc(C(C)C)cc3CC[C@@H]12 | -24.1&-24.1
Cc1cccc(-n2cnc3cc(C(=O)NCc4ccc(F)cc4)ccc32)c1 | -14.5
O=C(Nc1nnc(-c2ccccc2)o1)C1CCCCC1 | 1.1
O=c1cc(-c2ccccc2)c2cc(Cl)c(O)cc2o1 | -19.1
CC1CN(CCC(=O)Nc2sc3c(c2C#N)CCC3)CC(C)O1 (configuration not stated) | 1.6
CSc1nnc(-c2c[nH]c3ccccc23)n1C | 0.6
Cc1cccc(Cl)c1OC(=O)c1cc(C(C)(C)C)nn1C | -10.7
O=C(O)c1ccc(-n2nc(C(F)(F)F)c3c2CCCC3)cc1 | -10.6
COc1ccc(Nc2cc(C)ncn2)cc1 | -10.3
CCOC(=O)c1sc(NC2=NCCCCC2)nc1C | -12.0
Cn1cc(-c2ccccc2C(=O)O)c(=O)c2ccccc21 | -12.0
COCCn1c(=NC(=O)c2cccs2)sc2cc(C(=O)OC)ccc21 | -7.0
CN1CCN(Cc2cnc3ccccc3c2)CC1CCO (configuration not stated) | -4.0
Brc1ccc(-c2nnc3sc(CN4CCCCCC4)cn23)cc1 | 11.9&-4.9
CCOc1ccc(-c2nnc3ccc(SCC)nn23)cc1 | -20.0
CO[C@@H]1[C@H](O)[C@@H](CO)O[C@H]1n1cnc2c(NC3CCCCC3)ncnc21 | 4.4
CCCCCCCCCCCCCCCCCC(=O)NCCO | -18.4&-18.4
CC1=C(C(=O)N2CC(=O)N(CC(C)C)CC(OCc3ccccc3)C2)OCCO1 (configuration not stated) | 3.9
CC(Nc1nc(N)nc2[nH]ncc12)c1ccc(Cl)cc1 (configuration not stated) | -10.2&-10.2
C[C@@H]1NC(=O)NC1=O | -7.3&-13.1
O=S1(=O)CCC(NS(=O)(=O)c2cccc3cccnc23)C1 (configuration not stated) | 2.2
N#CSC1C=CS(=O)(=O)C1 (configuration not stated) | 2.1
CC(=O)Oc1ccc2c(=O)c(-c3ccccc3)coc2c1C | 5.0
CCOc1ccccc1NC(=O)CSc1ncnc2ccccc12 | -4.4
CCCCCC1OC(O)CC1SC[C@H](NC(C)=O)C(=O)O (some centres not stated) | -13.1&-13.1
Cc1cc(-c2cc3c(n(Cc4cccnc4)c2=O)CCN(C(=O)c2n[nH]c4c2CCC4)C3)ccc1F | -16.1
O=C(CSc1nnc2ccccn12)NCCc1ccccc1 | 1.3
O=C(NCCn1ccc2ccccc21)c1ccc(S(=O)(=O)N2CCCC2)cc1 | 3.8
COCCn1c(=O)c2ccccc2c2ccccc2c1=O | 4.7
c1csc(-c2nc3ccccc3[nH]2)c1 | -0.3
Cc1ccc(CNC(=O)CSC2=NS(=O)(=O)c3ccccc3N2)cc1 | -6.8
Cc1cc2ncc(C(=O)O)c(C(F)(F)F)n2n1 | -4.8
CC(=O)NC(C)c1nc2ccccc2n1C(C)C (configuration not stated) | 1.5
NS(=O)(=O)c1ccc2nc(NC(=O)C3CC3)sc2c1 | -22.1
Cc1cccc(NC(=S)N2CCCCC2C)c1 (configuration not stated) | -5.9
Cc1cc2cc(CNC(=O)c3ccccc3)ccc2n1C | 0.4
CC(C)n1cnc2c(Nc3cccc(Cl)c3)nc(NCCO)nc21 | -31.5
O=C(Nc1ccccc1Cl)c1csc2c1CCCC2 | -12.0
Oc1ccc(O)c(Cc2nc3ccccc3[nH]2)c1 | -24.7
COc1ccc(CNCc2cn3c(-c4ccc(Br)cc4)nnc3s2)cc1 | 4.7
Cc1ccc(NC(=O)CSC2=NCCN2)cc1 | 12.2
O=C(O)C(O)C(O)c1nc2ccccc2[nH]1 (configuration not stated) | 3.5
CN(Cc1ccccc1)c1ncnc2c1cnn2-c1ccccc1 | -3.6
O=C(Cc1ncc(C(F)(F)F)cc1Cl)NCC1CCCO1 (configuration not stated) | 1.2
C=CCc1ccc(Oc2ncnc3sc(C)c(C)c23)c(OC)c1 | -16.7
CCCCn1c(CCCNC(C)=O)nc2ccccc21 | 8.2
O=C(c1cccc2nccnc12)N1CCc2[nH]nc(COc3ccccc3)c2C1 | -33.8&-33.8
O=C(/C=C/c1cccs1)/C=C/c1cccs1 | 2.6
CN1CC[C@H](c2c(O)cc(O)c3c(=O)cc(-c4ccccc4Cl)oc23)C(O)C1 (some centres not stated) | -34.7
COC(=O)CC(c1ccc(Br)cc1)n1cccc1 (configuration not stated) | 0.2
O=C(CCN1C(=O)/C(=C/c2ccccc2)SC1=S)OC1CCCCC1 | -13.3
Nn1c(SCC(=O)NC2CCCCC2)nnc1-c1ccc(Cl)cc1 | -7.6
CCOC(=O)c1c(C)nn(-c2ccc(N)cc2)c1C | -14.1
CCSc1nnc(NC(=O)c2cccc(C(F)(F)F)c2)s1 | -14.9
CCOc1ccccc1NC(=O)c1ccc(Br)cc1F | -4.1
Cc1ccc(/C=C/C(=O)N2CCCc3ccccc32)o1 | -7.3
CCCc1ccc(OCC(=O)N(Cc2nc(-c3cccnc3)no2)C(C)C)cc1 | 1.2
NC(=O)N1c2ccccc2CC(O)c2ccccc21 (configuration not stated) | -5.0
CCc1nnc(SCC(=O)N2c3ccccc3Sc3ccccc32)n1N | -13.9
COc1cc(-c2nc3sc4c(c3c(=O)o2)CCCC4)cc(OC)c1OC | -1.4

(listing goes on)
SMILES | HCMV NEC inh
CC1(C)CCC(c2ccc(Cl)cc2)=C(CN2CCN(c3ccc(C(=O)NS(=O)(=O)c4ccc(NC(CCN5CCOCC5)CSc5ccccc5)c(S(=O)(=O)C(F)(F)F)c4)cc3)CC2)C1 (configuration not stated) | 3.1
CN(C)CCOc1ccc(C(=C(CCCl)c2ccccc2)c2ccccc2)cc1 | -3.1&-10.5
COC1[C@@H](OC)C[C@H](C)[C@@H](OC)C2=CC(=O)C=C(NC(=O)/C(C)=C/C=C\C(OC)[C@@H](OC(N)=O)/C(C)=C/[C@@H]1C)C2=O (some centres not stated) | -22.4
NC(N)=NCC1COC2(CCCCC2)O1 (configuration not stated) | -19.8
O=C(O)CC(Cc1ccc(Cl)cc1)C(=O)NCc1ccccc1 (configuration not stated) | -25.8
CCOc1ccc(NC(=O)c2ccc(S(=O)(=O)N3CCCC3)cc2)cc1 | -11.4
Cc1nnc2c(-c3ccccc3)nc3ccccc3n12 | -67.3
CC(C)(CCCCCCCCCCC(C)(C)CC(=O)O)CC(=O)O | -16.2&-16.2
CCC(CC)(NC(=O)C(C)C)C(=O)NC(CCCN=C(N)N)C(=O)NC1(C(=O)NC(c2ccc(F)cc2)c2ccc(F)cc2)CCCC1 (configuration not stated) | -5.1
CCCOc1ccccc1N1C(=O)CC(Nc2ccc(C)cc2)C1=O (configuration not stated) | -18.5
Cc1cc(NC(=O)Cn2ccc(-c3ccncc3)n2)n(-c2ccccn2)n1 | -9.2
CCN(CC)C(=O)C(C#N)=Cc1cc(O)c(O)c([N+](=O)[O-])c1 | -99.5
O=C(/C=C/c1ccco1)Nc1ccc(C(F)(F)F)cc1 | -5.5
COc1ccccc1-c1cc(-c2cccs2)nc(C)c1C#N | -0.7
CSC1=NC(=O)/C(=C/c2ccccc2C(F)(F)F)S1 | -0.8
COC(=O)C(C)NC(=O)C12CC3CC(CC(C3)C1)C2 (configuration not stated) | -23.3
CCOC(=O)Nc1ccc(Br)cc1C(NCC(=O)OC)c1ccccc1 (configuration not stated) | -23.2
Cc1cc(C)n(S(=O)(=O)c2cccs2)n1 | 3.2
CC(C)C(NC(=O)COc1ccccc1)C(=O)O (configuration not stated) | -5.4
Cc1ccc(/C=C/C(=O)NCC2CCCO2)o1 (configuration not stated) | -20.0
O=C(NCCCCCCNC(=O)ON=C1CCCCC1)ON=C1CCCCC1 | -3.8&-17.9
CCOC(=O)c1c(NC(C)=O)sc(C)c1C | -14.7
CC(=O)N[C@@H](CC(C)C)C(=O)N[C@@H](CC(C)C)C(=O)N[C@H](C=O)CCCN=C(N)N | -16.6
COc1ccc(C(=O)Nc2nc(C(C)(C)C)cs2)cc1 | -21.8
Cc1oc2cc(O)cc(C)c2c(=O)c1Oc1ccccc1 | -8.4
Cc1nsc(NC(=O)N2CCCC2C)n1 (configuration not stated) | -1.6
O=C1CCCN2N=C(SCC(=O)N3CCCCC3)SC2=N1 | -4.1
COc1ccccc1Nc1nc2ccccc2[nH]1 | -5.3
Cc1c(-c2ccccc2)oc2c(C(=O)OCCN3CCCCC3)cccc2c1=O | -9.3&-33.7
C=C(C)Cn1c(C2CC(=O)N(c3cc(OC)ccc3OC)C2)nc2ccccc21 (configuration not stated) | -16.7
CCCCc1ccc(NC(=O)CN2C(=O)CSC(C)C2=O)cc1 (configuration not stated) | 21.6
COc1ccc(-c2ccn(-c3cccc(F)n3)n2)cc1 | -14.9
CCN1CCN(C(c2cccs2)C(C)NC(=O)Cc2cccs2)CC1 (configuration not stated) | 8.0
Fc1ccc(/C=N/n2cnnc2)cc1 | 5.2
COC(=O)c1cc(CC#N)c(C)o1 | -4.1
Cc1nc2ccccc2nc1SC(C(=O)O)c1ccccc1 (configuration not stated) | -22.7
CC1CCC(C(=O)N(c2cc(C#CC(C)(C)C)sc2C(=O)O)C2CCC(O)CC2)CC1 (configuration not stated) | -39.8
CCOc1cc2ncnc(Nc3cccc(Br)c3)c2cc1OCC | -19.2
CCC1(CO)CCCN(c2ncc(C(F)(F)F)cc2Cl)C1 (configuration not stated) | -9.7
Cc1ccc(C)c(NC(=O)CC(NCCc2ccccc2)C(=O)O)c1 (configuration not stated) | 7.7
CC1(C)CC(=O)c2c(N)ncnc2C1 | -21.9
COc1cccc(CN2CCN(c3ccc4cccc(OC)c4n3)CC2)c1 | -12.9
CCOc1ccc2nc(NN)sc2c1 | -9.7
COc1cccc(C=NC=Nc2cccc(OC)c2)c1 | -11.2
CC(C)(C)n1nc2c(c1NC(=O)COc1ccccc1)CSC2 | -19.5
O=C(Nc1nccs1)c1ccc(Cl)s1 | -27.3
Cc1cc2ccccc2n1CCNC(=O)c1cccs1 | -7.5
N#Cc1c(F)cccc1C(C#N)(c1ccccc1)N1CCOCC1 (configuration not stated) | -4.0
COc1cccc(C(=O)N2CCN3C(=O)[C@@H]4C[C@@H](O)CN4C(=O)[C@H]3C2)c1 | -9.5
OC(COc1ccc(-c2ccccc2)cc1)CN1CCCCC1 (configuration not stated) | 2.7
OC(COc1ccc(F)cc1)CN1CCN(c2ccccc2F)CC1 (configuration not stated) | -8.6
O=C1CC(Nc2ccc(N3CCOCC3)cc2)C(=O)N1Cc1ccccc1 (configuration not stated) | -23.8
Cc1ccc2c(c1)C(c1ccccc1)N(C(=O)C1CC1)CC(=O)N2 (configuration not stated) | -3.6
COc1ccccc1N1CCN(C(=O)Nc2n[nH]c(Cc3ccccc3)n2)CC1 | -4.6
S=c1[nH]cnc2sc(-c3ccccc3)cc12 | -27.3
c1ccc(-c2nc3ccccc3s2)cc1 | -9.5
Cc1ccc(N(C(=O)c2cccs2)C2C=CS(=O)(=O)C2)cc1 (configuration not stated) | 4.0
NC(=O)N/N=C/c1ccc(Oc2ccc(F)cc2)cc1 | -5.0
Cc1cc(C=C2SC(=S)NC2=O)c(C)n1-c1cccnc1 | -36.5
Clc1ccc(-c2nnc(SCC3CC3)o2)cc1 | -16.8

Later entries
SMILES | HCMV NEC inh
COc1cc(NC(=O)c2csc(N)n2)cc(C(=O)Nc2cccc(C(F)(F)F)c2)c1 | -17.6
Cc1cccc(C(=O)Nc2nnc(-c3ccccc3C)s2)c1 | 4.8
CC1Cc2cc(/C(O)=C3/C(=O)C(=O)N(CCN(C)C)C3c3cccs3)ccc2O1 (configuration not stated) | -8.3
CCCCc1nc2ccccc2[nH]1 | 0.5
COc1ccc(C2C3=C(CCCC3=O)OC3=C2C(=O)CCC3)cc1O | -5.0
C[N+](C)(C)CCCCCNCC12CC3CC(CC(C3)C1)C2 | -6.2
N#Cc1c(-c2ccccc2)cc(C2CC2)c(C#N)c1N | -15.1
Cc1cc(I)ccc1Nc1c(C(=O)NOCC2CC2)cc(F)c(F)c1F | -26.8&-3.1
Cc1cccc(NC(=O)CN(C)S(=O)(=O)c2ccc(-c3cc(C)no3)cc2)c1 | -5.9
CCCC(=O)Nc1ccccc1-c1nc2ccccc2[nH]1 | -1.4
O=C(Nc1ccc(-c2nc3ccccc3[nH]2)cc1)C1CC1 | 3.3
